Screens deposited in PubChem by National Center for Advancing Translational Sciences (NCATS).
Menin-MLL FL inh: qHTS Assay for Inhibitors Targeting the Menin-MLL Interaction in MLL Related Leukemias: Competition With Fluorescein Labeled MLL-derived Peptide. AID 1766, 2009. Fluorescence polarization, fluorescein-MLL peptide displacement from menin. 290,000 tested, under 10 active. FP activity change, % at 61.4 µM; inconclusive = falling polarisation curve, or a change in total fluorescence; inactive = total fluorescence flat and polarisation flat or rising; no compound was filed as active; the % refers to the polarisation; negative = inhibition;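 further: % of control where 0% means no effect; inhibitors lower the polarisation; unlabelled MLL peptide was the positive control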
Sfp PPTase inh: qHTS Assay for Inhibitors of Bacillus subtilis Sfp phosphopantetheinyl transferase (PPTase). 4'-phosphopantetheinyl transferase ffp (Bacillus subtilis), Q9F4F7. Biochemical Sfp PPTase activity, qHTS. Potency, µM, inactives show max response, negative = inhibition, usual class: inhibitors. hit rate 3.5% among 310,000; active means well fitted inhibition curve with a large enough effect; inconclusive means small, poorly fitted or top-dose-only effect, or another doubt; inactive means no such curve, though single readings can be large or run the other way;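 further: the enzyme is Sfp with the accession as filed and its product quenches rhodamine fluorescence; potency means the concentration at half of the fitted maximal effect; 0% = enzyme reaction without inhibitor and -100% = no enzyme wells; top concentration of the series not given in the record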
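Compounds were incubated with enzyme (final 15 nM) for 15 min at room temperature before substrate addition started the reaction. Fluorescence at 525 nm excitation, 598 nm emission was recorded immediately and after 30 minutes.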
TRPV1 PAM: HTS Assay for Compounds that Act as Potentiators of the Vanilloid Receptor 1 | Transient receptor potential cation channel subfamily V member 1 (Homo sapiens), Q8NER1 | TRPV1-expressing cells, Fluo-8 calcium influx, capsaicin EC20 potentiation; host cell line not named in the record; control for the full effect not named in the record | potentiation, % at 8.33 µM | hit rate 0.02% among 320,000 | AID 540277, 2011; active means potentiation above 80%; inconclusive means 30% to 80%; inactive means below 30%; further: 0% is about no effect
Target sequence (Q8NER1 whole entry, looked up): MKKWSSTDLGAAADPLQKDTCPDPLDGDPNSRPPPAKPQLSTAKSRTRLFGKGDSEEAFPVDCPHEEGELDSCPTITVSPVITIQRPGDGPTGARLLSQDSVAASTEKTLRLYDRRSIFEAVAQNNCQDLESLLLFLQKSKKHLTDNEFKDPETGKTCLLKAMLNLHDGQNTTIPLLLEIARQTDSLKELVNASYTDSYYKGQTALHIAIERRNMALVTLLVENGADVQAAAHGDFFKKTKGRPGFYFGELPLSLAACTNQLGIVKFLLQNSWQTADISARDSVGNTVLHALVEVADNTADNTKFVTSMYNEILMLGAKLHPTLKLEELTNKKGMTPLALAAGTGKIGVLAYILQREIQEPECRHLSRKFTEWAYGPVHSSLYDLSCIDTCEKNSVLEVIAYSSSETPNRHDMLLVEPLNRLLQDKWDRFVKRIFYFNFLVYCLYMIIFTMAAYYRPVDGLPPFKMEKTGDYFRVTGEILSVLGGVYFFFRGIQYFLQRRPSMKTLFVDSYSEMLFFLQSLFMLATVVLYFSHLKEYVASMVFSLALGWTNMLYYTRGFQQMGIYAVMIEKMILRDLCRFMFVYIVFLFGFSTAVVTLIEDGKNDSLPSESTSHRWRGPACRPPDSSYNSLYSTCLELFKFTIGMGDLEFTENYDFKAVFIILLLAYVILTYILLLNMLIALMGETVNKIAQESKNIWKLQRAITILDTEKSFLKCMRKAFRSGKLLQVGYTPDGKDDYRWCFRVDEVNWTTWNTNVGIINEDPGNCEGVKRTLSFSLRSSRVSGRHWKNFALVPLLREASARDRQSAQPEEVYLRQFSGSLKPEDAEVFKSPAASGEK
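TRPV1-expressing cells were cultured overnight at 35.5C and loaded with Fluo-8 calcium dye for 40 to 90 min at room temperature. After a 10 s baseline, compound was added and calcium influx was read kinetically for 3 min (ex 480/em 520 nm).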
gsp antagonist: qHTS for Antagonists of gsp, the Etiologic Mutation Responsible for Fibrous Dysplasia/McCune-Albright Syndrome: qHTS; hit rate 0.4% among 340,000; AID 624288, 2012; Potency, µM (top dose mostly 76.9 µM), for the others: at the top dose activity change, negative = inhibition, hits mostly inhibitors; gsp-mutant cells, cAMP HTRF, 30 min; control for the full effect not named in the record; active = falling curve of any shape with a large fitted effect; inconclusive = falling curve, mostly with a smaller effect; inactive = flat or rising curve; cell line not stated here;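 further: intracellular cAMP measured with PDE inhibitor Ro 20-1724 present during compound exposure; potency means the concentration at half of the fitted maximal effect; on the % scale 0 is the no-effect control and ±100 the full control effect; nearly all actives have a fitted effect of over 65% in size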
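HTRF cAMP read-out (cAMP-d2 plus anti-cAMP antibody-K in lysis buffer, 30 min RT). Before lysis, cells are exposed to compounds with […] for 30 min at 37C in DPBS containing Ca/Mg, BSA and Tween 20.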
CtBP-E1A inh: qHTS Assay for Inhibitors of the CtBP/E1A Interaction. CtBP / adenovirus E1A interaction (AlphaScreen). AlphaScreen GST-E1A/His-CtBP binding, 1536-well; hits give low values; control for the full effect not named in the record. activity change, % (no concentration beside the values). hit rate 0.49% among 340,000. AID 651724, 2012; in the data active means activity change below about -65%; inconclusive means about -30% to -65%; inactive means above about -30%; further: on the % scale 0 is the no-effect control and ±100 the full control effect; compound concentration not given in the record
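Protein mix (5X: 125 nM each GST-E1A, His-CtBP) was incubated with pinned compound 2 h at 37 deg C in dark, in 50 mM Tris pH 8.0 buffer with 300 mM NaCl. Glutathione donor and nickel acceptor beads followed; AlphaScreen signal read after 1 h.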
ClpP mod: qHTS Assay for Activators of ClpP. ATP-dependent Clp protease proteolytic subunit (Bacillus subtilis (strain 168)), P80244. purified B. subtilis ClpP, FRET peptide cleavage, 20 min. Potency, µM (series often up to 57.5 µM), for the others: at the top dose activity change, negative = active. hit rate 1.9% among 340,000. AID 651965, 2013; active = well fitted falling curve with a large enough effect; inconclusive = small, poorly fitted or top-dose-only effect; inactive = no such curve, though single readings can be large or run the other way; further: potency means the concentration at half of the fitted maximal effect; the source files actives as falling curves though it sought activators and does not explain the sign; nearly all actives have a fitted effect of over 65% in size; many hits overshoot -100%
Target sequence (P80244 whole entry, looked up): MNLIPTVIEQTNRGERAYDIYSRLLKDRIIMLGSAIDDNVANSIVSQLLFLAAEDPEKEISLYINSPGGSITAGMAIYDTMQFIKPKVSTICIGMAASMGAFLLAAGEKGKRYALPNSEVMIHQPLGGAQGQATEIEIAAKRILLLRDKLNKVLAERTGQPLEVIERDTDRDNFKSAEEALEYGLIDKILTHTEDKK
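FRET quenching reversal measured ClpP activation: 10 microg/mL B. subtilis ClpP at pH 8 with the FRET-FV decapeptide, read at 430 nm after 320 nm excitation. The 20-min minus 0-min signal was scaled between DMSO/no-enzyme wells and ADEP (5.8 microM final).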
gsp agonist: qHTS for Agonist of gsp, the Etiologic Mutation Responsible for Fibrous Dysplasia/McCune-Albright Syndrome: qHTS. AID 624287, 2012. hit rate 0.13% among 340,000. gsp mutant cells, cAMP HTRF, 30 min; control for the full effect not named in the record. Potency, µM (series often up to 76.9 µM), without a hit: top-dose activation (cAMP increase), most hits filed as activators; active = well fitted activation curve with a large enough effect; inconclusive = small, poorly fitted or top-dose-only effect, or another doubt; inactive = no such curve, though single readings can be large or run the other way; cell line not stated here;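 further: phosphodiesterase inhibitor Ro 20-1724 added with compounds to block cAMP breakdown; potency means the concentration at half of the fitted maximal effect; nearly all actives have a fitted effect of over 60% in size; about a fifth of the inactives were tested at one dose only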
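Cells stably selected in G418 were plated at 2000/well, grown 16-24 hr, then given compounds in DMSO with the PDE inhibitor […] (300 uM solution added) for 30 min at 37C; cAMP was read by HTRF.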
Active calls of the source: *; ? = inconclusive; / = not tested or not shown; [ ] = remark or other dose. Random draw from the library (roughly 5.3% active in at least one column).

SMILES | Menin-MLL FL inh | Sfp PPTase inh | TRPV1 PAM | gsp antagonist | CtBP-E1A inh | ClpP mod | gsp agonist
Cc1ccnc(NS(=O)(=O)c2ccc(NC(=O)c3oc4ccccc4c3C)cc2)n1 | -1.6 | 12% | 1 | -23% | 2 | 1.2% | -20%
COc1cc2c(cc1OC)C(=O)N1[C@H]3c4ccccc4OC[C@@H]3[C@H](c3ccccc3)[C@]1(C)C(=O)N2 | / | / | -13 | -9% | -10 | -6.7% | /
CC1CCN(C(=O)c2ccc3c(c2)NC(=O)CN3)CC1 | 10 | 7% | -3 | -1% | 3 | / | 3%
COC(=O)C1=NN(C(=O)c2ccc(Br)cc2)C(O)(C(C)(C)C)C1 (configuration not stated) | 1.0 | 14% | -4 | -1% | 1 | / | -15%[15.4 µM]
Cc1cccc(NC(=O)C(C)OC(=O)c2ccccc2NS(=O)(=O)c2cc(C)c(C)c([N+](=O)[O-])c2)c1 (configuration not stated) | 5.3 | 19% | 7 | -19% | -6 | -0.8% | 3%
O=C1C2C3CCC(O3)C2C(=O)N1c1cccc(O)c1 (configuration not stated) | 1.3 | 21% | 6 | 12% | -3 | 0.4% | ?
O=C(N/C=N/OCc1ccc(Cl)cc1Cl)NOCc1c(Cl)cccc1Cl | 1.3 | ? | 6 | 11% | 9 | -3.0% | -23%
CCOC(=O)CSC1=C(C#N)C(c2ccccc2OCC)C(C#N)C(=O)N1 (configuration not stated) | 5.9 | ? | 3 | 7% | 4 | -4.7% | ?
COc1ccc(NC(=O)CCc2nc3ccccc3c(=O)[nH]2)cc1S(=O)(=O)N1CCCCC1 | / | / | / | -6% | -19 | -2.0% | ?
COc1ccc(CC(=O)OCC(=O)NC2CCCC(C)C2C)cc1 (configuration not stated) | / | / | / | 11% | 4 | / | -43%[inhibitor]
O=C(O)CCCN1C(=O)/C(=C/C=C/c2ccco2)SC1=S | 3.1 | -12% | 8 | -25% | -4 | / | -7%[15.4 µM]
Cc1ccc(C)c(NC(=O)CN2C(=O)NC(CCc3ccccc3)C2=O)c1 (configuration not stated) | / | / | / | 5% | -1 | / | 25%
CCS(=O)(=O)N1CCC(C(=O)N2CCN(Cc3ccccc3)CC2)CC1 | 4.1 | 22% | 10 | / | 0 | / | 8%[15.4 µM]
Oc1c(C=Nc2cccc3nsnc23)ccc2ccccc12 | 15 | 45µM* | ? | ? | -25 | -4.4% | 8%
COc1ccccc1N1CCN(/N=C/c2ccc(Cl)c([N+](=O)[O-])c2)CC1 | -0.2 | -14% | 28 | -10% | / | -2.0% | -11%
N#CC1=C(N)NC(=S)C(C(N)=O)C1c1ccccc1F (configuration not stated) | -2.6 | 0.71µM* | 1 | -1% | -1 | / | -1%
Cc1nc(C)c(Oc2cccc(C(F)(F)F)c2)c(=O)[nH]1 | -0.3 | 9% | 7 | -5% | 5 | / | -2%[15.4 µM]
CC(/C=C/c1ccco1)=N\NC(=O)c1cc(Cl)ccc1O | 6.2 | 1% | -2 | -17% | -24 | / | 19%
O=C(CCNC(=O)c1ccco1)Nc1ccc(OC(F)(F)F)cc1 | / | 17% | -3 | 3% | 0 | / | -35%[inhibitor]
CN(C)c1ccc(/C=C/c2nc3ccccc3c(=O)n2-c2ccc(C(=O)O)cc2)cc1 | ? | -10% | -14 | ? | -14 | / | 34%
Cc1ccc(NC2CCCCC2NS(=O)(=O)c2ccccc2)c(C)c1 (configuration not stated) | / | 4% | 0 | -19% | ? | -1.5% | -10%
COc1ccc(/C=N/NC(=S)N[C@H]2CC3CCC2C3)cc1 (some centres not stated) | 3.6 | 3% | 9 | -6% | -3 | / | 22%[15.4 µM]
O=S(=O)(NCC1(N2CCOCC2)CCCCC1)c1ccccc1Cl | / | / | -19 | -2% | -16 | -5.2% | -11%
CCOC(=O)C(=CNc1cc(C)nn1-c1ccc(Cl)cc1)C(=O)OCC | 1.8 | 2% | -18 | ? | 5 | 931% | -4%
CCOC(=O)c1cc(-c2cccnc2)nn1-c1ccccc1C | 0.6 | -6% | -13 | -1% | 3 | -0.4% | ?
O=c1[nH]c2ccc(Br)cc2c(-c2ccccc2)c1CN1CCOCC1 | 3.5 | -11% | / | 5% | -18 | -3.4% | 28%
O=C(NCCc1ccccc1)C1CCN(S(=O)(=O)c2cccc3nonc23)CC1 | -0.2 | -13% | 0 | -6% | 5 | -1.7% | 13%
O=C(COc1ccccc1)NCC(=O)NC1CCCCC1 | 0.2 | 15% | -1 | 11% | -1 | -0.3% | 19%[15.4 µM]
O=C(c1ccccc1NS(=O)(=O)c1ccc(F)cc1F)N1CCCCC1 | / | / | / | 8% | 4 | / | -2%
Cc1[nH]c(=O)[nH]c(=O)c1Sc1ccccc1[N+](=O)[O-] | -5.3 | 11% | -4 | 3% | 2 | / | 0%
CCOC(=O)C1=C(CBr)NC(=O)NC1C (configuration not stated) | -1.2 | 19% | 0 | -8% | 12 | / | 19%[15.4 µM]
Cc1ccc(/C=c2\sc3n(c2=O)CN(c2cccc(Br)c2)CN=3)o1 | 3.7 | 20µM* | -3 | -10% | -5 | -2.4% | 16%
O=C(COc1ccc(S(=O)(=O)N2CCOCC2)cc1Cl)NCc1ccc2c(c1)OCO2 | / | / | / | / | -5 | 0.8% | -28%
Cc1cc(C)c(C)c(S(=O)(=O)NCC(=O)NCC2CCCCC2)c1C | 5.1 | -13% | -10 | -8% | -6 | / | 24%
S=c1nc[nH]c2c1ncn2-c1ccccc1 | / | / | / | 3% | 0 | / | -1%
Cc1oc(S(=O)(=O)N2CCCCC2)cc1NC(=O)Nc1ccc(F)cc1 | 2.1 | -23% | ? | 0% | / | 1.5% | -5%
C[C@H](CO)N1C[C@H](C)[C@@H](CN(C)C(=O)c2ccc(F)cc2)Oc2cc(Br)ccc2S1(=O)=O | / | / | / | / | 5 | 1.7% | -48%[inhibitor]
O=c1[nH][nH]c(-c2ccccc2O)c1C(C[N+](=O)[O-])c1cccc(Cl)c1 (configuration not stated) | 14 | -4% | 18 | 12% | -1 | 6.3% | 0%
CCC(Sc1nc2ccccc2[nH]1)C(=O)Nc1ccc(NC(C)=O)cc1 (configuration not stated) | 0.1 | -3% | 7 | 6% | 1 | / | -42%[inhibitor]
CCO[C@H]1OC(C(=O)NCc2ccccc2)=C[C@@H](C(C)(C)C)[C@@H]1CCCO | / | / | / | -11% | 2 | 1.8% | ?
COCCCn1c(SCc2nnc(-c3ccc(OC)c(OC)c3)o2)nc2ccccc2c1=O | 3.8 | 1% | 14 | 7% | 17 | 0.6% | -40%[inhibitor]
CNC(=O)NC(=O)C(C)Oc1ccccc1F (configuration not stated) | -1.4 | 16% | 18 | 8% | 1 | -8.4% | -7%[15.4 µM]
CSc1nccc(-c2c(-c3ccc(Cl)cc3)noc2C)n1 | 0.8 | -19% | -9 | -15% | 13 | 0.8% | 1%
Cc1ccc(C2CC(c3ccc(Br)cc3)=NN2C(=O)CSC2=NN3CCCC(=O)N=C3S2)cc1 (configuration not stated) | / | -4% | 7 | -14% | 1 | -4.6% | 2%
O=C(CSc1nnc(-c2ccccn2)o1)Nc1ccccc1C(F)(F)F | -4.3 | -10% | 19 | 14% | ? | / | 9%
COc1cccc(N2CCN(C(=O)c3ccc(-c4ccccc4)cc3)CC2)c1 | / | -14% | -4 | -18% | -17 | -2.3% | -36%[inhibitor]
O=C(Nc1ccc(Cl)cc1)c1ccc(OC2CSC2)cc1 | 3.1 | 12% | -1 | 3% | 7 | -4.3% | 22%
CN(C)c1ccc(NC(=S)c2ccccn2)cc1 | -1.2 | 45µM* | -21 | -4% | -74* | -0.7% | 3%
CCn1c(SCC(=O)NNC(=O)c2ccccc2)nnc1-c1ccco1 | -1.6 | 11% | 2 | 9% | -10 | / | 15%[15.4 µM]
O=C1CC(c2cccc(Cl)c2)CC(O)=C1C=Nc1ccccc1 (configuration not stated) | 7.2 | -10% | -13 | -7% | -1 | 0.0% | 1%[15.4 µM]
Cc1ccc(C(=C2C3C=CC2C2C(=O)NC(=O)C32)c2ccc(C)cc2)cc1 (configuration not stated) | 2.2 | 10% | 7 | -7% | -4 | 0.7% | -3%
COc1ccc(CN2CCNC(=O)C2CC(=O)NC2CC(C)(C)CC(C)(C)C2)cc1OC (configuration not stated) | / | -4% | 14 | -3% | / | -2.9% | 6%
Cn1cc(S(=O)(=O)NCc2ccc(Cl)cc2)c(=O)n(C)c1=O | 0.9 | 10% | -8 | 15% | 6 | / | -9%[15.4 µM]
CCOC(=O)c1ccc(NC(=O)c2nc[nH]c2C(=O)N2CCc3ccccc3C2)cc1 | -0.4 | 22% | 18 | 4% | -2 | 5.4% | /
COc1ccc(N=Nc2ccc(O)c(P(=O)(c3ccccc3)c3ccccc3)c2)cc1 | 0.0 | 12% | -1 | 6% | 3 | 0.1% | ?
O=C(c1cnccn1)N(c1ccccc1)C1(C(=O)NC2CCCCC2)CCCCC1 | -0.8 | 6% | ? | -10% | 0 | 0.1% | -22%
COc1ccc(CCn2c(C)cc(C(=O)COC(=O)c3cnccn3)c2C)cc1 | -0.4 | -7% | -2 | -9% | -9 | 1.3% | 0%
COc1cccc(CNC(=O)CCCCCn2c(=S)[nH]c3ccc(N4CCOCC4)cc3c2=O)c1 | 1.4 | 79µM* | ? | / | / | / | /
CCCNC(=O)C1CC(=O)N(c2ccc(OCc3ccc(Cl)cc3)cc2)C1 (configuration not stated) | -1.6 | 10% | 3 | 5% | -2 | -0.1% | 1%[15.4 µM]
